BJeLR viability: kills HRASV12-expressing BJeLR cells; BJeLR (HRASV12) viability, CellTiter-Glo ATP luminescence, 48 h; reference of the scale not given here; inhibition, % (no concentration beside the values); hit rate 0.17% among 300,000; AID 1554;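 active means replicate mean above 50%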;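 further: 50 nL library stock added to about 25 µL; numbers are from one replicate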
Autofluor counter: flagged as autofluorescent in microsphere protease counterscreen; compound autofluorescence counterscreen, microsphere flow cytometry; active compounds read high; fluorescence intensity (test concentration not listed); hit rate 3.1% among 360,000; AID 624483;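 active means at least 3 SD above the mean of all compounds, about 16000 in these data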;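 further: 100 nL of 1 mM stock went into each well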
ugtP null kill: kills S. aureus RN4220 lacking UgtP | S. aureus RN4220 ugtP deletion, OD600 growth, 16 h; some inactives read as strong as hits | growth inhibition, % (no concentration beside the values) | hit rate 0.54% among 330,000 | AID 1259309;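 active means z-score under -3 and OD600 up to 0.15 on both plates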;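 further: plate controls were untreated wells for no effect and antibiotic for full effect; wells of about 80 µL received 100 nL stock; the first replicate is given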
PrP 5UTR inh: inhibition of PrP 5' UTR reporter expression | hit rate 0.35% among 340,000 | cell-based PrP 5' UTR mRNA reporter, plate reader | inhibition, % (test concentration not listed);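 active means every replicate at 50% or more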;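 further: 0 = median of the neutral control wells; tested in H4 reporter cells; numbers are from one replicate; inactives centre near -14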
RN4220 kill: kills Staphylococcus aureus RN4220; S. aureus RN4220 growth, OD600, 16 h; inhibition, % (test concentration not listed); hit rate 0.33% among 330,000; AID 1259311;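 active means z-score of -3 or lower and OD600 up to 0.18 on both plates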;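 further: plate controls were untreated cells for no effect and reference antibiotic for full effect; stock transfer was 100 nL into about 80 µL; one replicate is shown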
Mtb hypoxia rep: reduces hypoxia-regulated biosensor signal in M. tuberculosis; fluorescence inhibition, % (test concentration not listed); M. tuberculosis hypoxia-regulated fluorescent reporter, fluorescence; hit rate 0.1% among 300,000;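 active means 35 to 45% if threefold the growth effect, above 45% if 1.5-fold the growth effect; inactive means the rest, general growth blockers included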;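 further: wells of about 50 µL received 100 nL stock; 0% = vehicle wells and 100% = reference inhibitor wells; whole bacteria with a GFP reporter of the hypoxia response; strong numbers were not always called active; many hits fall short of the cut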
Mtb hypoxia rep growth: also measured in Mtb hypoxia rep; calls as there; growth inhibition, %; measured here: M. tuberculosis growth (absorbance);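 0% = vehicle and 100% = reference antibiotic; read after six days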
* = called active by the depositor; . = no result given; & = joins results of further samples.

SMILES | BJeLR viability | Autofluor counter | ugtP null kill | PrP 5UTR inh | RN4220 kill | Mtb hypoxia rep | Mtb hypoxia rep growth
CCCCn1c(=O)c(C(=O)NC(C)c2ccccc2)c(O)c2ccccc21 (stereo not given) | 0 | 3134 | 66 | -16 | -1.1 | -6 | 4
COc1ccc(CCn2ccc(O)c(Cc3c(F)cccc3Cl)c2=O)cc1OC | -13 | 3986 | 6 | -41 | 9.3 | 14 | 11
O=C(Nc1ccccc1)c1cccc(C(F)(F)F)c1 | 7 | 8957 | 9 | -12 | 7.8 | 23 | 10
CS(=O)(=O)N(CC(=O)NCCSc1ccccn1)c1cccc2ccccc12 | -9 | 10002 | -1 | -36 | 1.5 | 7 | -1
CCn1c(C)cs/c1=N\S(=O)(=O)c1ccccc1 | 4 | 4031 | . | -18 | . | . | .
CCOC(=O)CSc1nnc(-c2ccccc2)c(=O)[nH]1 | 6 | 14734 | 1 | -21 | 0.6 | 2 | 6
CCOC(=O)c1cnc2c(-c3ccccc3)cnn2c1N | 2 | 3608 | 4 | -71 | 7.6 | 18 | 18
O=C(O)c1ccccc1N(Cc1ccccc1)C(=O)CON=Cc1ccccc1 | . | . | 7 | . | 4.0 | 13 | 2
C[C@@H](C(=O)CC(=O)OC(C)(C)C)[C@@H](O)c1ccccc1 | 9 | 4169 | . | -9 | . | . | .
Cc1ccc(C(=O)Nc2ccc(OCc3ccccc3)cc2)cc1[N+](=O)[O-] | -2 | 9905 | 3 | -15 | 2.3 | 7 | 2
CCCN1C2=NCCN2c2ccccc21 | -3 | 4131 | -4 | -20 | -3.4 | . | .
COc1ccc(N2CCN(CC(O)COc3cc(C)ccc3C)CC2)cc1 (stereo not given) | -18 | 3623 | 3 | -7 | 6.4 | -11 | 2
CCCn1c(-c2ccc(OC)cc2)nc2ccccc21 | 4 | 7760 | 5 | -7 | 7.9 | 13 | 12
Cc1cc(=O)oc2cc(OCC(=O)Nc3cccnc3)ccc12 | . | 4222 | 4 | -1 | 2.3 | 4 | 1
C/C(C=NNC(=O)Cc1cccn1C)=C/c1ccco1 | . | . | -2 | . | 5.4 | 9 | 9
CC1CCCN1CC#CC(O)(c1ccccc1)c1ccccc1 (stereo not given) | 2 | 3883 | 7 | . | 0.1 | 7 | 11
CCc1ccc(Nc2nnc(SCC(=O)NC(=O)c3cccn3C)s2)cc1 | 7 | 2039 | -6 | -10 | 0.8 | -7 | 4
CCOC(=O)c1cnc2ccc(Br)cc2c1NCC(C)O (stereo not given) | . | 3504 | 2 | -14 | -2.0 | 18 | 15
CCSc1oc(-c2cccs2)nc1S(=O)(=O)c1ccccc1 | -2 | 5417 | 18 | -13 | 17 | 2 | 4
CCOC(=O)c1cccc(P(=O)(C(C)(C)C)C(C)(C)C)c1 | 3 | 2414 | . | -17 | . | . | .
O=c1c2ccccc2nc(SCc2nnc(-c3ccccc3Br)o2)n1Cc1ccco1 | -1 | 8163 | 5 | -6 | 3.8 | -1 | 2
CCN=c1scc(-c2ccco2)n1/N=C/c1ccc(OC)c(O)c1 | 10 | 24329* | . | -226 | . | . | .
c1ccc(CC(Cc2ccccc2)c2ccccn2)cc1 | . | 3770 | 17 | -25 | 6.5 | 8 | 5
Cc1ccc(N(Cc2cc3ccccc3[nH]c2=O)C(=O)c2cccs2)cc1C | -1 | 3672 | 4 | -12 | 3.5 | 16 | 8
CCOc1ccc(CCNC(=O)COC(=O)C2=NNC(=O)CC2)cc1OCC | 4 | 2690 | 8 | 1 | 2.3 | 5 | 4
O=C(c1ccc(Cl)c(S(=O)(=O)N2CCCCC2)c1)N1CCCC1 | 8 | . | 6 | -26 | 0.2 | -1 | -1
Cc1ccc(-c2nc3ccccn3c2Nc2ccccc2)o1 | 1 | 2553 | 12 | -23 | 2.2 | 4 | 5
C[C@]12CCC(O)CC1CCC1C2CC[C@]2(C)C(=O)CCC12 (stereo not given in full) | . | . | -1&1&2 | . | 3.5&6.2&11 | -2&6&1 | 2&6&4
O=C(NCCN1CCOCC1)c1ccc2c(c1)N(Cc1ccccc1)C(=O)CS2 | 1 | 11210 | 6 | -16 | 3.8 | -1 | 10
Cc1cc(C(=O)NN=C/C=C/c2cccc([N+](=O)[O-])c2)n[nH]1 | . | . | 0 | . | 0.3 | -6 | -4
COC/C=C/C1=CC2=CC(=O)C(C)(OC(=O)C3CCCC3)C(=O)C2=CO1 (stereo not given) | -9 | 3422 | . | -10 | . | . | .
CCn1c(SCC(=O)NCc2ccccc2)nnc1-c1c[nH]c2ccccc12 | 1 | 22868* | -9 | -19 | 4.2 | 15 | 0
CCN(CC)S(=O)(=O)c1cc(-c2nnc(-c3ccc(Br)cc3)o2)ccc1Cl | 6 | 2453 | -8 | -12 | 11 | -9 | 2
COc1ccc(OCCCC(=O)Nc2ncn[nH]2)cc1 | 3 | 2231 | 5 | -23 | 3.3 | -4 | -2
CC(C)C(=O)Nc1cccc(C(=O)NCc2ccc3c(c2)OCO3)c1 | 2 | 9948 | 4 | -45 | -0.3 | 7 | 10
COc1ccccc1-c1sc2cc3c(cc2c1C#Cc1ccccn1)OCO3 | . | 3865 | 30 | -5 | -3.6 | 5 | 9
CCOc1ccc2nc(NC(=O)CN3CCC(n4nnc5cc(F)ccc54)CC3)sc2c1 | -3 | 7244 | -3 | -30 | 5.7 | 3 | 16
CCn1c(O)c(/C=C2\C=Nc3ccccc32)sc1=Nc1ccc(C)cc1 | -5 | 8276 | 2 | -7 | 0.7 | 3 | -5
COc1ccc(S(=O)(=O)NCCc2cn3nc(C)c(C)nc3n2)cc1F | 0 | 5435 | 1 | -12 | 1.3 | 1 | -1
COc1ccc(C(=O)NN=Cc2cc3ccccc3[nH]c2=S)cc1 | . | . | 5 | . | 2.6 | -4 | 7
O=C(CCn1cnc2ccccc2c1=O)Nc1ccc(S(=O)(=O)N2CCCC2)cc1 | 9 | 3192 | 0 | 6 | 5.3 | . | .
Cc1cccc(CC(=O)Nc2ccc(C(=O)N3CCCCC3)cc2)c1 | 6 | 4388 | 9 | -3 | 3.8 | -1 | 1
CCc1cccc(C)c1NC(=O)COC(=O)c1cc([N+](=O)[O-])ccc1N1CCOCC1 | 7 | 5673 | 4 | -2 | 4.0 | -1 | 3
CCc1ccc(CN2CCC(n3nccc3NC(=O)c3ccccc3)CC2)o1 | -4 | 4978 | -5 | -16 | 0.2 | 0 | 9
O=C(Nc1ccc2nccnc2c1)c1ccco1 | 0 | 4541 | 4 | -37 | 0.4 | 1 | -4
Cc1ccc(N2C(=O)c3cccc4c(N)ccc(c34)C2=O)c2cccnc12 | 26 | 6050 | 3 | 74* | 2.0 | -1 | -4
COc1ccc(N(CC(=O)NCCSCc2cccc(Cl)c2)S(C)(=O)=O)cc1 | 2 | 3239 | 6 | 5 | 4.8 | 12 | 13
CN(CCC1CCCCO1)C(=O)CCc1nnc(CCCCc2ccccc2)o1 (stereo not given) | 0 | 2183 | . | -41 | . | . | .
Cc1cc(NC2CCCCC2)nc(-c2ccccc2O)n1 | -2 | 3381 | 2 | -25 | -7.3 | 9 | 0
COc1ccc(CCN(C)C(=O)C(CCSC)NC(=O)c2ccco2)cc1OC (stereo not given) | . | 3778 | 4 | -12 | -0.6 | 4 | 0
CC(C(=O)Nc1ccc2c(c1)OCCO2)N(C)CC(=O)Nc1ccccc1Br (stereo not given) | . | 7106 | 2 | 0 | 3.0 | 12 | -6
CSC1=NCCN1C(=O)Cc1ccc(-c2ccccc2)cc1 | 4 | 4171 | -3 | -21 | 2.4 | -2 | 9
CC(C(=O)NCC1CCCO1)N(C(=O)c1snc(C(N)=O)c1N)c1ccccc1 (stereo not given) | 10 | 23246* | -7 | 37 | 4.5 | 3 | 5
CCN(CC)C(=O)Cn1cc(C(=O)C(=O)N2CCN(c3ccccc3)CC2)c2ccccc21 | 13 | 5496 | 0 | -13 | -2.4 | 6 | 6
Cc1ccc(C(=O)CC2(O)C(=O)N(C)c3ccccc32)s1 (stereo not given) | -4 | 2308 | -3 | -5 | 3.4 | -1 | -1
CCOC(=O)CC1C(=O)NCCN1C(=O)c1ccc(Cl)cc1 (stereo not given) | 4 | 3850 | 1 | 5 | -1.2 | -6 | -22
O=C(NC1CCCN(Cc2ccc(Cl)cc2)C1)c1cccc(N2CCCC2=O)c1 (stereo not given) | -3 | 6183 | 9 | -13 | 4.0 | 10 | -2
Cc1onc(-c2ccccc2)c1C(=O)N1CCN(c2ccccc2)CC1 | 1 | 6017 | -1 | -11 | -0.1 | 7 | 1
CCNc1nc(Oc2ccc(C(=O)OC)cc2)nc(N(C)C)n1 | 8 | 2738 | -5 | -6 | -7.7 | 6 | 2
Cc1c(C(=O)O)sc(=S)n1-c1ccc(Cl)cc1 | -7 | 10301 | 1 | -29 | 1.9 | -2 | -3

One compound at a time, from the list above. Screens in order: BJeLR viability	Autofluor counter	ugtP null kill	PrP 5UTR inh	RN4220 kill	Mtb hypoxia rep	Mtb hypoxia rep growth
Results for Cc1ccc(C(=O)CC2(O)C(=O)N(C)c3ccccc32)s1 (stereo not given) → -4	2308	-3	-5	3.4	-1	-1
Results for CC(C(=O)NCC1CCCO1)N(C(=O)c1snc(C(N)=O)c1N)c1ccccc1 (stereo not given) → 10	23246*	-7	37	4.5	3	5
Results for Cc1c(C(=O)O)sc(=S)n1-c1ccc(Cl)cc1 → -7	10301	1	-29	1.9	-2	-3
Results for CSC1=NCCN1C(=O)Cc1ccc(-c2ccccc2)cc1 → 4	4171	-3	-21	2.4	-2	9

(next part)
SMILES | BJeLR viability | Autofluor counter | ugtP null kill | PrP 5UTR inh | RN4220 kill | Mtb hypoxia rep | Mtb hypoxia rep growth
Cc1ccc(S(=O)(=O)N(C)C)cc1NC(=O)CN1c2cccc3cccc(c23)S1(=O)=O | . | 3753 | 2 | -8 | 5.1 | -7 | -3
OCCNc1nc2ccccc2n1-c1ccccc1 | 5 | 11461 | -3 | -28 | 2.0 | 3 | 1
CC(c1ccon1)N(C)C(=O)CCc1nnc(Cc2ccc(-c3ccccc3)cc2)o1 (stereo not given) | 3 | 4458 | 3 | -37 | 2.3 | 0 | -9
CCN(CC)c1ccc(CNCc2cccs2)cc1 | 4 | 4518 | 4 | -14 | 3.8 | -10 | 0
Cc1ccc2nc(-c3ccc(NC(=S)NC(=O)CC(C)C)cc3)sc2c1 | -5 | 6534 | 2 | -87 | -4.1 | 20 | 22
Cn1c2c(c(=O)n(C)c1=O)C(c1ccccc1OC(F)F)C1=C(CCCC1=O)N2 (stereo not given) | -5 | 3284 | 5 | 10 | -0.2 | 7 | -1
O=C(Nc1ccccc1)c1ccc2c(c1)OCCCO2 | 14 | 5744 | -3 | -4 | 5.4 | 1 | -6
Cc1ccc(NN=Cc2cccnc2)cc1 | . | . | 2 | . | -0.4 | 6 | 7
CC(=O)Nc1ccccc1Nc1cc(C#N)c(C#N)cc1[N+](=O)[O-] | -1 | 10001 | -5 | -19 | 9.4 | -18 | 2
O=C(CCc1nc2ccccc2[nH]c1=O)OCC(=O)c1ccc(Cl)cc1 | 3 | 11310 | -1 | -6 | 5.8 | 8 | 7
O=C1CC(c2ccc(F)cc2)Cc2nc(N3CCOCC3)ncc21 (stereo not given) | 7 | 2154 | 5 | -23 | 6.0 | . | .
COC(=O)c1cc(/C=C/c2ccccc2)[nH]n1 | -2 | 3859 | . | -31 | . | . | .
COc1cccc(C(=O)NNC(=O)C2CCCO2)c1 (stereo not given) | 3 | 5766 | 1 | -1 | -0.8 | -10 | -3
COc1ccc(C(=O)CSc2nnnn2C)c(OC)c1 | 9 | 4342 | 0 | -17 | 3.0 | 1 | 1
CC(=O)c1cnc(SCC(=O)O)nc1C | -2 | 4623 | 9 | -24 | 2.7 | -7 | 5
CCOC(=O)CSc1nnnn1-c1cccc2ccccc12 | 11 | 3258 | -1 | -12 | 3.1 | -6 | 4
CN(C)c1nc2n(c(=S)n1)CCS2 | -16 | 5185 | 1 | -5 | 4.8 | . | .
O=C(/C(N=Nc1cccc(C(F)(F)F)c1)=C(/O)c1cccs1)C(F)(F)F | 7 | 3548 | 85 | -57 | 81 | 8 | 6
COc1ccc(OC)c(-c2csc(NC(=O)c3ccc(OCC4CCCO4)cc3)n2)c1 (stereo not given) | 6 | 3239 | -10 | -6 | 12 | 12 | 2
CCOc1ccc2nc3cc(NCc4ccc(OC)cc4)ccc3c(N)c2c1 | 7 | 3686 | 100* | 8 | 101* | -6 | 6
